Screening results from PubChem BioAssay.
S aureus helic: S. aureus DNA helicase inhibition. inhibition, %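 (tested at about 80 µM)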. AID 485395. 0.05% of 120,000 active. purified S. aureus helicase, fluorescence unwinding assay; about half of the hits fall short of the stated cut;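 active = both duplicates at 50% or more, or one of them with a favoured structure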;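 note: 0% = mean of negative control wells and 100% = mean of positive control wells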
MgrA-DNA mod: alters Staphylococcus aureus MgrA binding to DNA; fluorescence polarization; inhibition, %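 (about 10 µg/mL by stock and volumes)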; 0.13% of 84,000 active; AID 602314;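 active = above 50% in either of two replicates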;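 note: 0% = protein plus DNA without compound and 100% = DNA alone without protein; higher means less MgrA bound to DNA so lower polarization; one replicate is shown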
Active calls of the source: *; x = not tested or not shown.

The first 16 compounds, ahead of the listing:
MgrA-DNA mod	S aureus helic	molecule
0.5	8	COc1ccc(C2C3=C(CC(C)(C)CC3=O)Nc3[nH]c(=O)[nH]c(=O)c32)cc1 (stereo unspecified)
0.4	6	O=c1cc(O)c2sc3nc4c(cc3c2[nH]1)CCCC4
x	17	CCc1ccc(-c2cn3c4ccccc4nc3n2CCO)cc1
-0.1	7	Cc1cccc(N(C)S(=O)(=O)c2ccc3c(c2)CCN3C(=O)C2CC2)c1
-1.6	x	O=C(NCCSCc1ccco1)Nc1ccc(OCc2ccccc2)cc1
x	-9	CN(CC1COc2ccccc2O1)C(=S)NC1CCCCC1 (stereo unspecified)
0.1	-2	Cc1ccc(C(=O)N2CCCn3c2nc2ccccc23)cc1
x	6	COCc1c(C(=O)O)oc2ccccc12
x	0	O=C(CSC1=NCCS1)Nc1nnc(-c2ccc(Br)cc2)s1
2.5	2	O=C(N/N=C/c1ccco1)c1cccc(N2CCCC2=O)c1
-2.6	11	COC(=O)c1ccc(Cn2nc(C(F)(F)F)cc2C)cc1
x	4	Cc1ccc(-n2nnc3c(=O)n(CC#N)cnc32)cc1Cl
-1.3	7	CC(C)CNCC1OCc2ccccc2CO1
3.6	x	Cc1c(C)c(C)c(C(=O)CCC(=O)O)c(C)c1C
x	-39	N#Cc1ccc(Cn2cnc3ccccc32)cc1
-3.3	13	COc1ccc(-c2cc(C(F)F)nc(-n3nc(C)cc3C)n2)cc1

Results, from the start:
MgrA-DNA mod	S aureus helic	molecule
0.5	8	COc1ccc(C2C3=C(CC(C)(C)CC3=O)Nc3[nH]c(=O)[nH]c(=O)c32)cc1 (stereo unspecified)
0.4	6	O=c1cc(O)c2sc3nc4c(cc3c2[nH]1)CCCC4
x	17	CCc1ccc(-c2cn3c4ccccc4nc3n2CCO)cc1
-0.1	7	Cc1cccc(N(C)S(=O)(=O)c2ccc3c(c2)CCN3C(=O)C2CC2)c1
-1.6	x	O=C(NCCSCc1ccco1)Nc1ccc(OCc2ccccc2)cc1
x	-9	CN(CC1COc2ccccc2O1)C(=S)NC1CCCCC1 (stereo unspecified)
0.1	-2	Cc1ccc(C(=O)N2CCCn3c2nc2ccccc23)cc1
x	6	COCc1c(C(=O)O)oc2ccccc12
x	0	O=C(CSC1=NCCS1)Nc1nnc(-c2ccc(Br)cc2)s1
2.5	2	O=C(N/N=C/c1ccco1)c1cccc(N2CCCC2=O)c1
-2.6	11	COC(=O)c1ccc(Cn2nc(C(F)(F)F)cc2C)cc1
x	4	Cc1ccc(-n2nnc3c(=O)n(CC#N)cnc32)cc1Cl
-1.3	7	CC(C)CNCC1OCc2ccccc2CO1
3.6	x	Cc1c(C)c(C)c(C(=O)CCC(=O)O)c(C)c1C
x	-39	N#Cc1ccc(Cn2cnc3ccccc32)cc1
-3.3	13	COc1ccc(-c2cc(C(F)F)nc(-n3nc(C)cc3C)n2)cc1
-0.9	17	c1coc(CNCC2OCCCCO2)c1
x	4	O=C(CN1C(=O)C2CC=CCC2C1=O)Nc1ccc2c(c1)CCC2 (stereo unspecified)
2.6	-9	COC(=O)C1=C(C)OC(N)=C(C#N)C1c1ccc(C(=O)OC)cc1 (stereo unspecified)
x	3	COc1cccc(CNC(=O)CN2C(=O)c3cccnc3Oc3ccc(C)cc32)c1
-3.1	0	C=CCNC(=O)C1CC(c2ccccc2F)=NO1 (stereo unspecified)
-1.5	1	Cc1cc(C)n(-c2ccc(C(=O)Nc3nc4ccccc4s3)cc2)n1
x	3	COC(=O)CSc1nc2ccccc2nc1SCC(=O)OC
x	11	COc1cc(NC(=O)C(CC(C)C)NC(=O)C2CCCCC2)cc(OC)c1OC (stereo unspecified)
1.7	6	CS(=O)(=O)NCc1ccc2c(c1)OCO2
x	5	O=C(C1CCC(Cn2c(=O)[nH]c3ccsc3c2=O)CC1)N1CCCC1 (stereo unspecified)
-2.0	-3	Cc1ccc2[nH]cc(NC(=O)NCc3ccco3)c(=O)c2c1
0.4	x	COc1cc(/C=N/NC(=O)c2ccc(N(C)C)cc2)cc(OC)c1OC
x	10	COc1cccc(-n2c(SCC(=O)N3CCC(C)CC3)nc3c([nH]c4ccccc43)c2=O)c1
x	-5	O=C(COc1ncnc2ccccc12)Nc1ccc(N2CCCCC2)cc1
x	17	Cc1cccc(NC(=O)NCc2ccc3c(c2)cc(C)n3C)c1
-0.8	9	O=C(Cc1ccccc1)NCc1ccncc1
2.2	10	COCCCNc1ncnc2ccc(Br)cc12
-1.6	12	O=C(c1cc(Sc2ccc(Cl)cc2)nc2ccccc12)N1CCC2(CC1)OCCO2
-1.9	x	COc1cc(C=C2C(=O)N(C)C(=O)N(C)C2=O)ccc1OCCBr
3.0	18	C=CCNc1nc(N)sc1C#N
4.6	13	CCOc1cc2nccnc2cc1OCC
x	-4	CCOc1ccccc1N(C)C(=O)c1cn(CC(C)C)c(=O)c2cc(OC)c(OC)cc12
x	-2	Cc1cc(C)n2ncnc2n1
-1.7	1	O=C(CN1CCN(CCN=Cc2c(O)[nH]c(=O)[nH]c2=O)CC1)Nc1ccc(Br)cc1
x	5	O=C(NCCCN1CCCC1=O)c1ccc(CNS(=O)(=O)c2ccc(F)cc2)cc1
0.8	-6	O=C1CCN(C(=O)/C=C/c2ccccc2)c2ccccc21
0.4	-5	CCOC(=O)N1CCC(c2cc(=O)n3[nH]c(-c4ccccc4)cc3n2)CC1
x	-25	COc1cc2c(cc1OC)C(C)N(C(=O)c1nccnc1C(=O)O)CC2 (stereo unspecified)
-2.0	17	COC(=O)C1C2C=CC3(CN(C4CCCC4)C(=O)C13)O2 (stereo unspecified)
-2.3	x	c1ccn(-c2ccc3nccnc3c2)c1
x	-3	CC1(C)C2CC=C(/C=N/NC(N)=O)C1C2 (stereo unspecified)
x	-5	CC(=O)Nc1cccc(C(=O)OC(C)C(=O)N(C)c2ccccc2)c1 (stereo unspecified)
-0.8	4	Cn1c(C(=O)NCc2ccc3c(c2)OCO3)cc2sccc21
-2.5	13	CC1=C(C#N)C(C(F)(F)F)(C(F)(F)F)N=C(c2ccncc2)N1

The list goes on.
MgrA-DNA mod	S aureus helic	molecule
1.1	24	CC12CC3CC(C)(C1)CC(C(=O)NC1=NCCS1)(C3)C2
-1.0	-8	CCCc1cc(=O)oc2cc(OCC=C(C)C)ccc12
1.9	1	CC1(C)CC(NS(=O)(=O)c2ccccc2)CC(C)(C)N1
-1.8	x	COC(=O)c1scc(S(C)(=O)=O)c1-n1cccc1
x	-57	O=C(CCS(=O)(=O)c1ccc2c(c1)NC(=O)CS2)NCc1ccccc1
0.0	-27	CC1=CC(C)C(C(=O)O)C(C(=O)O)C1 (stereo unspecified)
2.0	x	CS(=O)c1sc(C#N)c2c1C(=O)CCC2 (stereo unspecified)
-0.1	-2	CCC(NC(=O)c1ccc(S(=O)(=O)N2CCOCC2)cc1)C12CC3CC(CC(C3)C1)C2 (stereo unspecified)
x	19	COC(=O)c1ccc(CSc2nc3ccc(S(N)(=O)=O)cc3[nH]2)cc1
1.2	-3	COc1cc2[nH]c3c(=O)n(Cc4ccc(Cl)cc4)cnc3c2cc1OC
x	2	c1ccc2[nH]c(NN=C3CCCC3)nc2c1
-7.6	-80	CN(C)c1ccc(/C=C2\CSC(=S)NC2=O)cc1
2.8	3	CCc1ccc(NC(=O)N(CCN(C)C)C(C)c2cccnc2)cc1 (stereo unspecified)
-1.9	-5	CC(=O)N1N=C(c2ccncc2)OC1(C)C
13	x	O=C(O)C1Cc2c([nH]c3ccccc23)C(c2ccccc2[N+](=O)[O-])N1 (stereo unspecified)
x	8	Cc1ccccc1Nc1nc(N)nc(COC(=O)CCc2nc3ccccc3c(=O)[nH]2)n1
1.8	1	CCOC(=O)c1nn(-c2ccccc2)c(C(=O)OCC)c1N(C(=O)CC)C(=O)CC
-2.0	x	CCC(=O)N1N=C(c2c(-c3ccccc3)c3cc(Br)ccc3[nH]c2=O)CC1c1ccc(OC)cc1 (stereo unspecified)
x	14	O=C(CCSCc1ccccc1Cl)NCc1ccco1
0.3	-10	COC(=O)c1cc(S(=O)(=O)NCc2ccccc2)cn1C
x	10	Cn1c(N)c(C(=O)CSc2nc3sc4c(c3c(=O)n2Cc2ccco2)CCCC4)c(=O)[nH]c1=O
0.2	10	CC1CC(C)CN(CCCNC(=O)c2ccc3c(SCC(=O)O)c4c(nc3c2)CCC4)C1 (stereo unspecified)
x	-12	C(=C\c1cccs1)/c1ccccc1
x	10	CCC(=O)Nc1ccc2c(c1)C(=O)NC2=O
-1.3	x	COCCCNC(=S)N/N=C/c1ccccc1Cl
-0.9	x	COc1ccc(Cc2nnc(Nc3ccc(C)cc3)o2)cc1OC
x	15	CCOP(=O)(c1ccccc1)c1nc(-c2ccc(Cl)cc2)oc1NCc1ccccc1 (stereo unspecified)
x	3	Cc1ccc(S(=O)(=O)N(C)c2ccccc2)s1
-0.1	5	CC1CC(C)(C)NC(=S)N1CC(=O)N(C)Cc1ccccc1 (stereo unspecified)
x	14	CCN(CC(=O)Nc1cccc(OC)c1)C(=O)C1CCN(C(=O)Nc2ccccc2)CC1
x	13	N#Cc1ccc(COC(=O)C2CCCCN2S(=O)(=O)c2cccc3nsnc23)cc1 (stereo unspecified)
x	8	CCCNC(=O)Nc1ccc2snnc2c1
x	23	COc1ccc(NC(=O)c2ccc3c(-c4ccccc4)onc3c2)cc1
-0.1	18	N#CC(C(=O)CN1CCOCC1)c1ccccc1 (stereo unspecified)
x	6	O=C(O)c1ccc2ccccc2n1
x	-19	c1cnc(Sc2nnc3ccccn23)nc1
x	21	COc1cccc(NC(=S)N(CCC(C)C)C2CCN(C(C)=O)CC2)c1
x	8	CCC(=O)OC1=C2C(=Nc3c(c(=O)n(C)c(=O)n3C)C2c2ccccc2)c2ccccc21 (stereo unspecified)
x	-14	Cc1ccc2nc(SCCCC#N)[nH]c2c1
0.2	-1	Cc1c2cnn(-c3ccccc3)c(=O)c2c(C)n1CCCC(=O)N1CCCCC1
x	-24	CCc1ccccc1NC(=O)CC1SC(N)=NC1=O (stereo unspecified)
x	0	O=S(=O)(Nc1cc(Cl)ccc1N1CCCCC1)c1cccc2nsnc12
-1.3	x	Cc1ccnc(NS(=O)(=O)c2ccc3c(c2)CCO3)c1
x	-23	COC(=O)c1c[nH]c2ccccc12
3.1	x	CCOC(=O)c1ccc(-c2ccc(/C=N/NC(=S)Nc3ccc(OC)cc3)o2)cc1
x	3	CC(C)N1C(=O)C(O)(CC(=O)c2ccccc2)c2ccccc21 (stereo unspecified)
-1.0	7	COCC(=O)Nc1ccccc1C(=O)N1CCN(c2ccccc2)CC1
1.4	-15	CN(C)c1c2c(c(C#N)c3nc4ccccc4n13)CCC2
x	9	O=C(Cc1cccc(C(F)(F)F)c1)NNc1c(F)c(F)cc(F)c1F
1.1	x	Cc1cccc(C)c1NC(=S)Nc1ccc(C(C)C)cc1

The list goes on:
MgrA-DNA mod	S aureus helic	molecule
x	-4	COc1cc(Br)c(CSc2n[nH]c(=O)n2C2CC2)cc1OC
x	4	Cc1ccc(N(Cc2ccco2)C(=O)CNS(=O)(=O)c2ccc(Cl)cc2)cc1
0.2	x	O=C(Nc1ccccc1)N1CCN(c2ncccn2)CC1
-1.1	-4	Cc1ccc(N(Cc2ccc(C(=O)NCc3ccco3)cc2)S(C)(=O)=O)cc1C
3.2	-2	O=C(COn1nnc2ccccc21)N1CCc2ccccc2C1
x	8	C/C(=N\OCc1nc2c3cnn(Cc4ccccc4)c3ncn2n1)c1ccccc1
x	-19	CC(C)NS(=O)(=O)c1ccc(NC(=O)c2ccncc2)cc1
x	-13	Cc1ccsc1C(=O)Nc1ccccc1N1CCOCC1
4.3	x	CCOc1ccc(N2C(=O)NC(=O)/C(=C/c3ccc(OC)c([N+](=O)[O-])c3)C2=O)cc1
1.2	21	C=C(C)CSc1nnc(CNC(=O)OC(C)(C)C)n1-c1ccccc1
-0.7	-4	Cc1ccc(NC(=O)c2ccco2)c(N)c1
-2.5	x	O=C(Oc1ccc(C2=NCCS2)cc1)c1ccccc1Cl
0.3	x	Cc1nc(-c2cnccn2)sc1C(=O)N1CCN(C)CC1
x	9	O=C(Cc1ccc(F)cc1)Nc1nnc(-c2ccc(F)cc2)o1
16	9	CC1CCN(CC(C)OC(=O)c2ccc3c(c2)OCCO3)CC1 (stereo unspecified)
1.8	-4	O=C(NCCC(c1ccccc1)c1ccccc1)c1cc2ccccc2c(=O)o1
x	10	COC(=O)Nc1ccc(SC(F)(F)C(F)(F)C(F)(F)F)cc1
x	-23	CCOC(=O)c1sc(NC(=O)Nc2ccc(F)cc2)nc1C
0.6	8	CN(C)C(=O)/C(=C\c1ccccc1)NC(=O)c1ccccc1
x	-3	O=C(CN1CCCC1c1ccc2c(c1)OCCO2)NC(=O)Nc1ccccc1F (stereo unspecified)
x	19	CCN1CCc2c(OCc3ccc(Cl)cc3)cccc2C1=O
1.9	13	CN(CC(=O)Nc1cccnc1)S(=O)(=O)c1cccc2cccnc12
x	-4	Cc1ccc(OCCOn2nnc3ccc(S(=O)(=O)N(C)C)cc32)cc1
0.2	23	COc1cccc(S(=O)(=O)Nc2ccc(C(=O)N3CCCCCC3)cc2)c1
x	-8	Cc1ccc(CC(C#N)Sc2nnc(-c3ccccc3F)o2)cc1 (stereo unspecified)
-0.2	6	O=C(NCC1CCCO1)c1cc2c(=O)[nH]c3ccccc3c2s1 (stereo unspecified)
-1.8	x	O=S(=O)(Cc1ccc(Cl)cc1)NCc1cccnc1
-2.0	8	Cc1ccccc1OCc1nnc(N)s1
-3.5	x	CS/C(=C/C(=O)c1ccco1)Nc1ccccc1Cl
x	-29	COc1ccc(CCNC(=O)C(C(C)C)N2Cc3ccccc3C2=O)c(OC)c1OC (stereo unspecified)
2.4	-1	Fc1ccc(-c2cn3ccsc3n2)cc1

This is a subset. The share of hits here may be higher or lower than overall.
